Screening results from PubChem.
NPR1 antag: blocks ANP-stimulated signaling of human Npr1 receptor. AID 1347048. Potency, µM (highest dose often 46.3 µM), for inactives: top-dose activity change, negative = inhibition, actives largely listed as inhibitors. P16066. HEK293 hNpr1 GloSensor cGMP, ANP-stimulated luminescence. 76,000 compounds, 1.6% hits; active = well fitted inhibition curve with a large enough effect; inconclusive = small, poorly fitted or top-dose-only effect; inactive = no such curve, though single readings can be large or run the other way;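 also: nearly all actives have a fitted effect of over 60% in size; nearly all hits also lower the signal before the agonist is added; a reference antagonist and vehicle were the controls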
Target sequence (P16066 whole entry, looked up): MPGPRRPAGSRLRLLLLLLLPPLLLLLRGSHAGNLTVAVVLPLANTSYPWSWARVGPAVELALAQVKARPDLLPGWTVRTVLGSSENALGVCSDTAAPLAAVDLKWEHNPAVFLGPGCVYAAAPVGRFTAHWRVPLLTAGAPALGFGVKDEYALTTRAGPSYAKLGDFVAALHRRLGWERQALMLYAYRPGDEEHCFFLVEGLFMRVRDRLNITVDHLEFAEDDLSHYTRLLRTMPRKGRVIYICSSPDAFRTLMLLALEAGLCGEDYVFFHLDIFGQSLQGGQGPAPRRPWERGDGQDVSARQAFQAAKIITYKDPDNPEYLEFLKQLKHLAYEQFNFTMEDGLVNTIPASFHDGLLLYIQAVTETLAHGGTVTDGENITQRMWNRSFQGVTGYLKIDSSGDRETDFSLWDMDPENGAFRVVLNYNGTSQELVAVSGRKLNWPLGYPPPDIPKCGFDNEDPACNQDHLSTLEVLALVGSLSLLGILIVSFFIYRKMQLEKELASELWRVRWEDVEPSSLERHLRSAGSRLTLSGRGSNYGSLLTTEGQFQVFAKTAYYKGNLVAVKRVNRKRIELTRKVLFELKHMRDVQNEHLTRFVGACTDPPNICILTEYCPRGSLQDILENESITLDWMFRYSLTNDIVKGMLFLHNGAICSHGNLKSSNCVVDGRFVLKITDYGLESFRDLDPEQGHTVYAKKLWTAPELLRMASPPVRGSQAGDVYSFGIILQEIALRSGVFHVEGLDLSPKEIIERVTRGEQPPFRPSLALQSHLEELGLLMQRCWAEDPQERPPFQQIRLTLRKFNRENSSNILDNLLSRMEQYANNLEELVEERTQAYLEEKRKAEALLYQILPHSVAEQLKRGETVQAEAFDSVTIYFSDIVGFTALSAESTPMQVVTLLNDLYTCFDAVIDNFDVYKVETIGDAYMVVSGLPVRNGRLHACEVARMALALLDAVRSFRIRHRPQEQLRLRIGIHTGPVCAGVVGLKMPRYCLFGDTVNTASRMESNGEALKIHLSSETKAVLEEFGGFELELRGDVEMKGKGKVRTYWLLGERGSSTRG
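HEK293 cells stably expressing human Npr1 and cGMP GloSensor pGS-40F, loaded 2 h with 2% GloSensor reagent, given compound 30 min at room temperature. Luminescence read before and 20 min after 0.1 nM hNppA.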
The depositor's hits bear a star; ? = inconclusive; [ ] = dose if it differs, or a comment. % is scaled to controls: 0 for no effect and ±100 for the full control effect; potency is read from the fitted curve at half-maximal effect. A portion of the library (hit frequency here may not be typical).

Start of the listing, in advance:
NPR1 antag,SMILES
-2%,COc1cccc(S(=O)(=O)N2CCCN(C(=O)C3CC3)C(c3ccccc3)CC(=O)NCC2)c1 (stereo unspecified)
-24%,COc1cc(OC)cc(C(=O)NC2CCN(c3cc(-c4cccs4)[nH]n3)C2)c1 (stereo unspecified)
0%,CCNC(=O)[C@@H]1C[C@H](N)CN1C(=O)C(C)(C)Oc1ccc(C)cc1

This part in full, from the first entry:
NPR1 antag,SMILES
-2%,COc1cccc(S(=O)(=O)N2CCCN(C(=O)C3CC3)C(c3ccccc3)CC(=O)NCC2)c1 (stereo unspecified)
-24%,COc1cc(OC)cc(C(=O)NC2CCN(c3cc(-c4cccs4)[nH]n3)C2)c1 (stereo unspecified)
0%,CCNC(=O)[C@@H]1C[C@H](N)CN1C(=O)C(C)(C)Oc1ccc(C)cc1
-1%,CC(C)c1nc2ccccc2n1CC(=O)N1CCc2c(nc[nH]c2=O)C1
2%,Cc1cnc(C(=O)N[C@@H]2CN(Cc3cccnc3)C[C@H]2CN(C)C)cn1
4%,CCNC(=O)N1CCC(CCOC)(NS(=O)(=O)c2cccc3cccnc23)CC1
1%,CN1C(=O)C2(CCN(C(=O)CCc3ccccc3)C2)c2ccccc21 (stereo unspecified)
6%[70.6 µM],O=C(NC1CCCCC1)N[C@@H]1C=C(C(=O)N[C@H]2CCCNC2=O)C[C@@H](O)[C@@H]1O
-1%[70.6 µM],CC(=O)N1CCC(NC[C@H]2COCc3nc4ccc(C)cc4n32)CC1
1%,COc1cc(-c2ccccc2C#N)cc(OC)c1OC
2%[70.6 µM],CNC(=O)[C@@H](Cc1ccccc1)N1CCC[C@H]1C(=O)N1CCCCC1
2%,COc1ccc(C(=O)N2CC(C(=O)N(C)C)C3(CCOCC3)C2)cc1 (stereo unspecified)
-15%,CCN(Cc1ccncc1)Cc1cn(-c2ccccc2)nn1
-7%,CSc1cccc(NC(=O)Cn2c(C)cc3nc4n(c(=O)c32)CCCC4)c1
4%,CC(=O)N1CCN(Cc2cccc(C#N)c2)CC(O)C1 (stereo unspecified)
-2%,Cc1c(C(=O)N2CCC3(CC2)CC(C(=O)O)N(C)C3)c[nH]c(=O)c1C#N (stereo unspecified)
-17%,COc1cc(OC)cc(C(=O)N2CCN(c3cc(-c4cccs4)[nH]n3)CC2)c1
-10%[70.6 µM],CC(C)N1C[C@@H]2OCC(=O)N(CC3CCCCC3)[C@@H]2C1
2%[70.6 µM],COC(=O)N(C)C1CCCc2ccccc21 (stereo unspecified)
6%[70.6 µM],CC(C)(C)C(=O)N1CC[C@@H](CC(=O)O)[C@@H](CC2=NCCc3ccc(C(C)(C)C)cc32)C1
-7%,O=C(Cc1cccs1)N1CCCC(CN2CCOCC2)CC1 (stereo unspecified)
0%[70.6 µM],COCCNC(=O)C[C@@H]1O[C@H](CNC(=O)c2ccc(N(C)C)cc2)[C@@H](O)[C@H]1O
-1%,Cc1[nH]cnc1CN1CC[C@H](N2CCN(C)CC2)[C@H](CCC(=O)O)C1
-2%[70.6 µM],O=C1Nc2ccccc2CC12CCCCN2Cc1ccc(F)cc1 (stereo unspecified)
-2%,COc1ccc(-c2cc(N3CCCN(C(=O)C(C)c4ccccc4)CC3)n[nH]2)cc1 (stereo unspecified)
2%,O=C1NCCCCCCN(C(=O)Cc2ccccc2)[C@@H]2C[C@@H](c3nc(-c4cccnc4)no3)C[C@H]12
3%,CN(C)C[C@@H]1CN(S(C)(=O)=O)C[C@H]1NC(=O)c1cc2ccccc2[nH]1
-13%,COc1ccc2[nH]c(C[C@@H]3C[C@@H](C(C)C)[C@H](CN(Cc4ccccn4)Cc4ccccn4)C=C3C)nc2n1
-20%,O=C(c1cccs1)N1CCC2(CCCN(CCC3CCCCC3)C2=O)C1 (stereo unspecified)
-5%,Cc1ccc(CNC(=O)c2ccc3c(c2)N(C)C2CCCCN2C3=O)cc1C (stereo unspecified)
5%,CCn1c(CO)nnc1C1CC(NC(=O)c2nnc3nc(C)ccn23)C1 (stereo unspecified)
-13%,CN1C(=O)CN(CCCCOc2ccccc2)C(=O)c2ccccc21
-25%,COc1ccc(CC(=O)NC2CCN(c3cc(-c4ccc(OC)cc4)[nH]n3)CC2)cc1
3%,CCOCCn1nc(C)cc1C(=O)N1CCC2(CC1)[C@H](O)C[C@@H]2OCC
?,CCc1ccc(CN2CCC(C(=O)Nc3ccc(Oc4cccnc4)cc3)CC2)o1
5%,COc1ccc(CCN2C(=O)O[C@@H]3CN(C(=O)NCc4ccccc4)C[C@@H]32)cc1
0%,COc1ccc(C2(C(=O)N3CC4CC(C3)[C@H]3CCCC(=O)N3C4)CCCCC2)cc1 (stereo partly specified)
1%,CCOc1ccc(C(=O)N2CC(COC)C3(CCOCC3)C2)cc1 (stereo unspecified)
5%[70.6 µM],CC(C)CCN1CCC(O)(c2csc(CN3CCN(c4ccccn4)CC3)n2)CC1
7%[70.6 µM],Cc1ccc2nc(C3CCN(CC4CCCC4)CC3)[nH]c(=O)c2c1

For reference, four of the compounds above:
NPR1 antag,SMILES
-20%,O=C(c1cccs1)N1CCC2(CCCN(CCC3CCCCC3)C2=O)C1 (stereo unspecified)
-5%,Cc1ccc(CNC(=O)c2ccc3c(c2)N(C)C2CCCCN2C3=O)cc1C (stereo unspecified)
5%,CCn1c(CO)nnc1C1CC(NC(=O)c2nnc3nc(C)ccn23)C1 (stereo unspecified)
-13%,CN1C(=O)CN(CCCCOc2ccccc2)C(=O)c2ccccc21

(continued)
NPR1 antag,SMILES
-4%,C[C@H]1[C@@H]2[C@@H](O)C([C@H](C)C(=O)NCc3cccs3)CC[C@@]2(C)CC[C@@H]1NC(=O)c1cnccn1 (stereo partly specified)
-1%,COc1ccccc1N1CCN(C(=O)C[C@@H]2O[C@H](CNC(=O)c3ccco3)[C@@H](O)[C@H]2O)CC1
1%,CN(C)CCN(Cc1ccsc1)C(=O)[C@H]1CCC[C@H](O)C1
0%,O=C(NCc1nnc2c(-c3nc(C4CC4)no3)cccn12)c1ccc(F)cc1Cl
1%,Cn1nc2n(c1=O)CCN(C(=O)c1cccc(C#N)c1)CC2
10%[70.6 µM],Cc1nnc([C@H]2CCN(C(=O)c3ccccc3)C2)o1
9%,COc1cccc(CN2CCCOCCNC(=O)CC2)c1OC
-7%,CC(=O)Nc1ccc(CN2CCC3(CC2)CC(c2cccc(C(F)(F)F)c2)=NO3)cc1
5%,CCC(O)Cn1nc(-c2ccco2)nc1-c1ccccc1-c1nn[nH]n1 (stereo unspecified)
8%,Cc1ccc(-c2ccc3nnc(CNC(=O)c4ccc(Cl)cc4)n3n2)cc1
?,Cc1ccc(OCCC2CCN(C(=O)c3cnccc3C)C2)cc1 (stereo unspecified)
3%,O=C(Cc1ccc(Cl)cc1)N1C[C@@H](CO)[C@H](c2ccncc2)C1
5%[70.6 µM],COCCN1CCNc2cc(Nc3cccc(OC)c3)ncc2C1
3%,CCC(C)NC(=O)N1CCc2ccc(S(=O)(=O)Nc3nn[nH]n3)cc2C1 (stereo unspecified)
3%[70.6 µM],COCCNC(=O)C[C@@H]1O[C@H](CNC(=O)NC2CCCCC2)[C@@H](O)[C@H]1O
2%,CCn1ccc(C(=O)N2CCC(N3C(=O)C(O)C34CCCCC4)CC2)n1 (stereo unspecified)
0%,O=C(NCCc1cnc[nH]1)C1CC(=O)N(c2n[nH]c3cc(Br)ccc23)C1 (stereo unspecified)
-26%,CCC1=C(C(=O)OC)C(c2ccccc2OC)N2C(CC(=O)N3CCCC3)=CSC2=N1 (stereo unspecified)
-1%[70.6 µM],O=c1c2nc(-c3ccsc3)ccc2ncn1-c1ccc(F)cc1F
-1%[70.6 µM],CC(=O)NC[C@H]1OC[C@@H](N(Cc2cccc(C#N)c2)Cc2cccc(C#N)c2)[C@@H]1O
-9%,N#Cc1ccccc1CN1CCNc2nc(COc3cccc(N4CCOCC4)c3)n(Cc3ccccc3)c2C1=O
?,Cc1ccc(S(=O)(=O)N2CCCC(Cn3c(C)nc4cccnc43)C2)c(C)c1 (stereo unspecified)
5.6µM*,COCC(=O)Nc1nc2c(s1)C[C@]1(C)CC[C@@H]3[C@H](OC(=O)[C@H]3C)[C@H]1[C@@H]2C
1%,O=C(NCc1ccccc1)c1ccc(-c2cccc3c2CCNC3)o1
-24%[70.6 µM],COc1ccc(CNc2cc(Cl)nc3ccnn23)cc1
-28%,O=C(NC1CCCC1)C1c2ccccc2CC(=O)N1Cc1ccccc1 (stereo unspecified)
1%,CC(C)c1ccccc1NC(=O)Cn1cccc1-c1nc(-c2ccc(F)cc2)no1
-1%[70.6 µM],Cc1noc(C)c1S(=O)(=O)N1CCC(N2CCCC2=O)CC1
-2%,Cc1ccccc1NC(=O)N1CCC(CCNC(=O)C2CCC2)CC1
-2%,Cc1nc2c(c(=O)n1C)CN(C(=O)[C@H]1CNC[C@H](C(=O)N3CCCC3)C1)C2
-24%,COc1ccc(C2Cn3nnc(C(=O)N4CCN(C(=O)c5cccs5)CC4)c3CO2)cc1 (stereo unspecified)
-16%,CCc1ccc(NC(=O)N2CCc3c(c4ccccc4n3C)C2)cc1
1%,CCCn1ccc2oc(C)c(C(=O)NCc3ccccc3)c2c1=O
1%,O=C([C@@H]1C[C@H](Oc2ccccc2)CN1C(=O)c1cc2ccccc2[nH]1)N1CCOCC1
-6%[70.6 µM],CC(=O)N1CCN([C@H]2[C@@H]3OC[C@@H](O3)[C@@H](NC(=O)Nc3ccccc3)[C@@H]2O)CC1
-1%,Cc1nnnn1CCCN1C[C@H](NC(=O)CC2CCC2)[C@@H](C(C)C)C1
-13%,Cc1cccc(NC(=O)N2CC3CN(C)CC(C2)O3)c1
-1%,CN(C)c1ccc(NC(=O)CCn2ccn3nc4c(c3c2=O)CCCC4)cc1
-2%,O=C(NCCN1CCC(Cc2ccccc2)CC1)C1(CCO)CC12CCOCC2 (stereo unspecified)
9%,CC[C@@]1(C(=O)O)C[C@H](C(=O)NC(CO)CO)[C@H](c2ccc(OC)cc2)N1C
5%[70.6 µM],CN1C(=O)CO[C@H](c2ccc(NC(=O)CCc3ccccc3)cc2)[C@H]1CO
4%,Cc1ccc(C2NC(=O)N(CC(=O)NC(C)(C)C)C3=C2C(=O)OC3)cc1 (stereo unspecified)
0%,Cc1cnc(CC2CCN(C(=O)C3CCCC3)C2)n1CC1CC1 (stereo unspecified)
-3%,COc1ccc(C(=O)N[C@@H]2CCC[C@@H]2C(=O)N2CCSCC2)cc1
9%,O=C(c1ccccc1OCc1ccccc1)N1CCNCC(O)C1 (stereo unspecified)
-2%,COc1ccc(C2(C(=O)N3CCCC(c4[nH]ccc4C(N)=O)C3)CC2)cc1 (stereo unspecified)
-1%,COCCNC(=O)[C@@H]1C[C@H](Oc2ccccc2)CN1C(=O)NC(C)(C)C
7.9µM*,COc1cccc(CC(=O)N2CC(Oc3ccc(-c4noc(-c5ccncc5)n4)cc3)C2)c1
-25%[70.6 µM],O=C1COc2ccc(OCc3ccccc3)nc2CN1Cc1ccc(F)cc1
0%,CCS(=O)(=O)N1CCC(CCOC)(NC(=O)C2CC2)CC1
0%,COc1ccc(NC(=O)Cn2cccc2-c2nc(-c3ccc4c(c3)OCO4)no2)cc1
2%,COCCOCc1nc(C2CCN(C(=O)Nc3ccc(OC)c(OC)c3)CC2)no1
0%,Cc1csc(CNC(=O)C2CCCN(C3CCN(Cc4cccnc4)CC3)C2)n1 (stereo unspecified)
?,COc1ccc(-c2noc(-c3ccc(N4CCCOCC4)nc3)n2)cc1
0%[70.6 µM],CN(C)CCNC(=O)[C@H]1C[C@@H](O)[C@H](O)[C@@H]2N=C(Nc3ccc(Cl)cc3)S[C@@H]21
0%,CN1CCC(N(C)C(=O)CCC[C@@H]2[C@H]3CCCN4CCC[C@@H](CN2C(=O)c2ccccc2)[C@@H]34)CC1
5%,CC(C)CNC(=O)N1[C@@H]2CC[C@H]1CC(NC(=O)c1ccc(F)cc1)C2 (stereo partly specified)
1%,CNC(=O)CCn1ncc2cc(OCc3ccccc3-c3c(Cl)cccc3OC)ccc21
4%,CS(=O)(=O)N1CCOc2ccc(CCC(=O)N3CCCCC3)cc2C1
-14%[70.6 µM],O=C(C[C@@H]1CCNC[C@@H]1Cc1cc(-c2ccc(F)cc2)on1)Nc1ccccc1

Next section
NPR1 antag,SMILES
-14%,COc1cccc(CN2CCCC(COc3ccccc3C(=O)NC(C)C)C2)n1 (stereo unspecified)
1%,O=C(Nc1ccc2c(c1)OCO2)C1CCCN(c2cn[nH]c(=O)c2)C1 (stereo unspecified)
?,COc1ccc(N2CCN(c3nc(C(=O)N4CCCC(C)C4)cs3)CC2)cc1 (stereo unspecified)
-30%,N#Cc1cccc(CN2CCC3(CC2)CC(Cc2nc(C4CC4)no2)CCO3)c1 (stereo unspecified)
1%[70.6 µM],O=c1cc(N2CCOCC2)oc2c(NCC3CCOCC3)nccc12
2%,Cc1cc(C(=O)N2CCOC(Cc3cccc(C(F)(F)F)c3)C2)nn1C (stereo unspecified)
1%,COc1ccc(C2(C(=O)N3CCC4(CC3)CC(C(=O)N3CCOCC3)N(C)C4)CC2)cc1 (stereo unspecified)

As entered above.
COCCN1CCNc2cc(Nc3cccc(OC)c3)ncc2C1 | NPR1 antag: 5%[70.6 µM]
Cc1csc(CNC(=O)C2CCCN(C3CCN(Cc4cccnc4)CC3)C2)n1 (stereo unspecified) | NPR1 antag: 0%
O=C(C[C@@H]1CCNC[C@@H]1Cc1cc(-c2ccc(F)cc2)on1)Nc1ccccc1 | NPR1 antag: -14%[70.6 µM]
CN(C)CCNC(=O)[C@H]1C[C@@H](O)[C@H](O)[C@@H]2N=C(Nc3ccc(Cl)cc3)S[C@@H]21 | NPR1 antag: 0%[70.6 µM]
COc1cccc(CN2CCCOCCNC(=O)CC2)c1OC | NPR1 antag: 9%
